Compound activity from PubChem.
MITF inhib = blocks MITF activity. TRPM1 promoter luciferase, luminescence, 24 h. inhibition, % (no concentration beside the values). 37,000 compounds, 0.28% hits. AID 2240;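 active = most replicates at 85% or more, or half of them and the mean; inconclusive = half reach 85% but not the mean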;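 also: human melanocyte line stably carrying TRPM1 promoter luciferase reporter; 0% = vehicle wells and 100% = a positive control; the first replicate is given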
PD-1 reverse act = reversal of PD-1 mediated T-cell inhibition | AID 2316 | activation, % (no concentration beside the values) | primary human CD4 T cells, PD-L1 beads, CellTiter-Glo 96 h | 29,000 tested, under 10 active;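 active = replicate mean of 50% or more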;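 also: 0% = median vehicle wells and 100% = positive control; 100 nL library stock added to about 50 µL; numbers are from one replicate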
YB-1 expression = YB-1 expression inhibition; U2OS, qRT-PCR YB-1 vs CDIP delta delta Cp, 16 h; stronger effect = higher value; zero = DMSO, each unit about twofold; delta delta Cp (YB-1 minus CDIP) (test concentration not listed); 30,000 compounds, 0.37% hits; AID 434959;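 active = delta delta Cp rounded down to an integer at or above 3, about 3 SD of DMSO wells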;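 also: higher means less YB-1 transcript or more CDIP transcript relative to DMSO; stock transfer was 100 nL into about 100 µL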
Shh pathway inh = blocks Sonic Hedgehog signaling. 22,000 compounds, 2.1% hits. Shh-LIGHT2 Gli-luciferase reporter, 30 h. inhibition, % (no concentration beside the values). AID 2313;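 active = replicate mean of 65% or more; inconclusive = mean lower but half the replicates past it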;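 also: pathway switched on by Shh-conditioned medium diluted 1 in 25 in low serum; 100 nL library stock added to about 40 µL; 0% = median of neutral wells and 100% = positive control level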
An asterisk follows results filed as active; ? = inconclusive; nt = not tested or not shown. An excerpt; the hit share may differ from the screen's.

SMILES	MITF inhib	PD-1 reverse act	YB-1 expression	Shh pathway inh
C[C@H](CO)N1C[C@H](C)[C@H](CN(C)S(=O)(=O)c2ccc(Cl)cc2)Oc2ccc(NS(=O)(=O)c3cn(C)cn3)cc2C1=O	-3	nt	0.078	nt
COc1ccc(NC(=O)COc2c(Cl)c(C)c(Cl)c(C)c2Cl)c([N+](=O)[O-])c1	-1	1.6	nt	nt
COc1ccc(NC(=O)N(C)C[C@H]2Oc3ccc(NC(=O)CCN4CCOCC4)cc3CC(=O)N([C@@H](C)CO)C[C@H]2C)cc1	0	0.8	0.19	-29
C[C@H]1CN([C@@H](C)CO)C(=O)c2cccc(NC(=O)c3ccc(-c4nccs4)cc3)c2O[C@H]1CN(C)C	2	1.4	-0.35	13
Cc1ccc(S(=O)(=O)N(C)CC(=O)Nc2ccc(C)c(C)c2)cc1	8	-0.7	nt	nt
COc1cc2ccc(=O)oc2c(CC=C(C)C)c1OC	-2	-2.9	-0.63	-5
C[C@@H]1CCCCO[C@@H](CN(C)C(=O)CCC(F)(F)F)[C@@H](C)CN([C@H](C)CO)C(=O)c2cc(NS(C)(=O)=O)ccc2O1	-7	0.7	0.24	-6
COc1ccc(S(=O)(=O)N(C)C[C@H]2Oc3c(NC(=O)C4CCCCC4)cccc3C(=O)N([C@H](C)CO)C[C@H]2C)cc1	-3	-1.1	0.048	-12
CC(C)NC(=O)N(C)C[C@H]1Oc2ccc(NS(C)(=O)=O)cc2CC(=O)N([C@@H](C)CO)C[C@@H]1C	-7	1.7	-0.11	-22
COc1ccc([N+](=O)[O-])cc1NC(=O)CN(c1cc(C)ccc1C)S(C)(=O)=O	-18	-0.2	nt	nt
Cc1cc(C(=O)c2ccccc2)ccc1OC(=O)COc1ccccc1[N+](=O)[O-]	51	-1.0	nt	nt
COc1cc(C)nc(NC(=O)COc2ccc(Cl)cc2C)n1	40	-1.0	nt	nt
Cc1ccc(S(=O)(=O)Nc2ccc3c(c2)C(=O)N([C@H](C)CO)C[C@H](C)[C@H](CN(C)CC2CC2)O3)cc1	8	2.2	0.1	-29
CC(C)NC(=O)N(C)C[C@H]1Oc2ccc(NS(=O)(=O)c3cccs3)cc2C(=O)N([C@H](C)CO)C[C@H]1C	8	2.2	-0.13	nt
C[C@@H]1CN([C@@H](C)CO)C(=O)c2cccc(N(C)C)c2O[C@@H]1CN(C)C(=O)Nc1ccc(F)cc1	-11	-2.0	0.2	57
Cc1[nH]n(-c2ccccc2)c(=O)c1/C=C1\C=NN=C1c1ccccc1	-51	-19	-0.49	-18
COc1ccc(CCNc2nc(C)cc(C)n2)cc1OC	-19	1.7	nt	nt
CC(CC(C)O[C@@H]1O[C@H](CO)[C@@H](O)[C@H](O)[C@H]1O)OC(=O)/C=C/c1ccc(O)cc1 (stereo partly drawn)	5	1.7	0.59	-26
C[C@@H]1CN([C@@H](C)CO)C(=O)c2cc(NS(=O)(=O)c3cccs3)ccc2O[C@H]1CN(C)S(C)(=O)=O	3	0.3	-0.11	-6
C[C@@H]1CN([C@H](C)CO)C(=O)c2cccc(NC(=O)Nc3ccc(C(F)(F)F)cc3)c2O[C@H]1CN(C)Cc1ccc2c(c1)OCO2	63	-7.8	0.091	20
C[C@@H]1CN([C@H](C)CO)C(=O)Cc2cc(NC(=O)Nc3ccc4c(c3)OCO4)ccc2O[C@@H]1CN(C)S(=O)(=O)c1ccc(Cl)cc1	2	-0.4	-0.06	44
Cc1noc(C)c1NC(=O)Nc1ccc2c(c1)C(=O)N([C@@H](C)CO)C[C@H](C)[C@@H](CN(C)Cc1ccccc1)O2	-2	4.3	0.068	nt
CNC[C@H]1OCCCC[C@@H](C)Oc2ccc(NC(=O)Cc3ccccc3)cc2C(=O)N([C@H](C)CO)C[C@@H]1C	-6	nt	0.77	-9
Cc1noc(C)c1NC(=O)N(C)C[C@@H]1Oc2c(NS(=O)(=O)c3ccccc3)cccc2C(=O)N([C@@H](C)CO)C[C@H]1C	-6	1.2	-0.043	-16
C[C@@H]1CN([C@@H](C)CO)C(=O)c2cccc(NC(=O)C3CC3)c2O[C@H]1CN(C)C(=O)Nc1ccccc1	0	1.0	-0.29	-14
Cc1ccc(-c2nc(S(=O)(=O)c3ccc(F)cc3)c(SCC(N)=O)o2)cc1	29	-0.5	nt	nt
COCCNS(=O)(=O)c1ccc(F)c(OC)c1	-17	3.2	nt	nt
C[C@H]1CN([C@@H](C)CO)C(=O)Cc2cc(NC(=O)Nc3cccc4ccccc34)ccc2O[C@H]1CN(C)Cc1ccc(C(=O)O)cc1	18	0.3	-0.33	nt
C[C@H]1CN([C@@H](C)CO)C(=O)c2cc(NC(=O)Nc3ccc(F)cc3)ccc2O[C@H]1CN(C)Cc1ccc(-c2ccccc2)cc1	20	-0.1	0.24	48
O=c1cc(-c2ccc(O)c(O)c2)oc2c(C3O[C@H](CO)[C@H](O)[C@H](O)[C@H]3O)c(O)cc(O)c12 (stereo partly drawn)	nt	nt	0.47	0
Cc1ccc(S(=O)(=O)N(C)C[C@@H]2Oc3ccc(NC(=O)Nc4ccc(C(F)(F)F)cc4)cc3C(=O)N([C@H](C)CO)C[C@H]2C)cc1	12	-0.9	0.17	-5
COc1ccc(NC(=O)N(C)C[C@H]2Oc3c(NC(=O)c4ccc(-c5nccs5)cc4)cccc3C(=O)N([C@H](C)CO)C[C@@H]2C)cc1	-3	0.4	0.36	-38
CC(C)NC(=O)N(C)C[C@@H]1OCCCC[C@@H](C)Oc2ccc(N(C)C)cc2C(=O)N([C@H](C)CO)C[C@@H]1C	-16	1.8	0.18	-1
COc1ccc2c(c1)-c1c(ssc1=S)C(C)(C)N2	0	-0.6	-0.27	-28
C[C@@H]1CN([C@@H](C)CO)C(=O)c2cc(NS(=O)(=O)c3ccc(F)cc3)ccc2O[C@@H]1CN(C)S(=O)(=O)c1ccc(F)cc1	1	1.2	-0.038	12
Cn1c(=O)c2c(nc(SCC(=O)O)n2Cc2ccc(F)cc2)n(C)c1=O	3	-0.2	nt	nt
O=C(Nc1ccccc1Cl)c1ccccc1S(=O)(=O)c1ccccc1[N+](=O)[O-]	4	2.0	nt	nt
Cc1cc(Cl)ccc1OC(C)C(=O)Nc1cccc(-c2nnc(-c3ccccc3)o2)c1 (stereo not drawn)	-19	3.6	nt	nt
C[C@H](CO)N1C[C@H](C)[C@@H](CN(C)Cc2ccccc2)Oc2ccc(NC(=O)c3ccncc3)cc2C1=O	5	0.2	0.45	-13
Cc1ccc(S(=O)(=O)Nc2ccc3c(c2)C(=O)N([C@@H](C)CO)C[C@H](C)[C@H](CN(C)C(=O)Nc2ccccc2)O3)cc1	-14	-1.5	-0.34	nt
C[C@H]1CN([C@@H](C)CO)C(=O)c2cc(NC(=O)c3ccncc3)ccc2O[C@H]1CN(C)Cc1ccc(C(F)(F)F)cc1	4	-3.2	0.22	-3
CC1(C)CC[C@]2(C(=O)O[C@@H]3O[C@H](CO)[C@@H](O)[C@H](O)[C@H]3O)CC[C@]3(C)C(=CCC4[C@@]5(C)CC[C@H](O[C@@H]6O[C@H](C(=O)O)[C@@H](O[C@@H]7O[C@H](CO)[C@@H](O)[C@H](O)[C@H]7O)[C@H](O)[C@H]6O)C(C)(C)C5CC[C@]43C)C2C1 (stereo partly drawn)	10	-0.2	0.52	7
C/C=C1\[C@H](O[C@@H]2O[C@H](CO)[C@@H](O)[C@H](O)[C@H]2O)OC=C(C(=O)OC)[C@H]1CC(=O)OC	nt	nt	0.95	-33
CC(=O)Nc1ccc(NC(=O)CSc2nnc(-c3ccncc3)n2-c2ccc(Cl)cc2)cc1	1	2.8	nt	nt
C[C@H]1CN([C@@H](C)CO)C(=O)c2cccc(NS(=O)(=O)c3cn(C)cn3)c2O[C@@H]1CN(C)C(=O)Nc1ccc(F)cc1	-9	-1.2	-0.06	-24
C[C@@H]1CCCCO[C@H](CN(C)C(=O)CCCN(C)C)[C@@H](C)CN([C@H](C)CO)C(=O)c2cc(NC(=O)c3ccncc3)ccc2O1	0	0.4	0.12	nt
Cc1noc(C)c1NC(=O)N(C)C[C@@H]1Oc2ccc(NC(=O)NC(C)C)cc2CC(=O)N([C@H](C)CO)C[C@@H]1C	-19	0.6	-0.44	-19
C[C@@H]1CN([C@@H](C)CO)C(=O)c2cc(N(C)C)ccc2O[C@H]1CN(C)C(=O)Nc1cccc2ccccc12	4	nt	0.22	-38
C[C@H](CO)N1C[C@H](C)[C@H](CN(C)Cc2ccc(Cl)c(Cl)c2)Oc2ccc(NS(=O)(=O)c3cn(C)cn3)cc2C1=O	-19	-2.5	0.15	nt
CCn1c(SCC(=O)Nc2cc(C)ccc2OC)nnc1-c1ccccc1F	6	-1.5	nt	nt
Cc1noc(C)c1NC(=O)N(C)C[C@@H]1Oc2ccc(NC(=O)CCCN(C)C)cc2C(=O)N([C@@H](C)CO)C[C@H]1C	-9	1.5	0.12	9
COc1ccc(S(=O)(=O)N(C)C[C@@H]2OCCCC[C@@H](C)Oc3ccc(NS(=O)(=O)c4c(C)noc4C)cc3C(=O)N([C@H](C)CO)C[C@@H]2C)cc1	5	nt	-0.55	?
Cc1nn(CC(O)COc2ccc3c(c2)CCC3)c(C)c1Br (stereo not drawn)	-13	-5.4	nt	nt
C[C@@H]1CN([C@H](C)CO)C(=O)c2cc(NS(C)(=O)=O)ccc2O[C@@H]1CN(C)S(=O)(=O)c1ccccc1	-4	1.1	-0.15	-10
Cc1cc[n+](CCOc2ccc(N)cc2)cc1	1	0.7	-0.3	-18
C[C@@H]1CN([C@H](C)CO)C(=O)c2cc(NC(=O)Nc3cccc4ccccc34)ccc2O[C@H]1CN(C)Cc1ccc(C(F)(F)F)cc1	24	-3.4	-1	nt
Cc1ccc(S(=O)(=O)N(C)C[C@H]2Oc3c(NC(=O)c4ccc(-c5nccs5)cc4)cccc3C(=O)N([C@@H](C)CO)C[C@@H]2C)cc1	-5	nt	-0.28	58
C[C@@H]1CN([C@@H](C)CO)C(=O)c2cccc(NC(=O)c3nc4ccccc4s3)c2O[C@H]1CN(C)CC1CCCCC1	11	nt	-0.031	34
C[C@@H]1CN([C@@H](C)CO)C(=O)Cc2cc(NC(=O)C3CCCCC3)ccc2O[C@@H]1CN(C)CC1CCCCC1	-3	0.0	0.33	nt
CCSC(=S)NC1CCS(=O)(=O)C1 (stereo not drawn)	-3	0.8	-0.057	-22

2 entries from above, with bars between the fields:
mol | MITF inhib | PD-1 reverse act | YB-1 expression | Shh pathway inh
CCn1c(SCC(=O)Nc2cc(C)ccc2OC)nnc1-c1ccccc1F | 6 | -1.5 | nt | nt
Cc1noc(C)c1NC(=O)N(C)C[C@@H]1Oc2ccc(NC(=O)CCCN(C)C)cc2C(=O)N([C@@H](C)CO)C[C@H]1C | -9 | 1.5 | 0.12 | 9

The listing picks up with the 3 entries that preceded the break.
SMILES	MITF inhib	PD-1 reverse act	YB-1 expression	Shh pathway inh
C[C@@H]1CN([C@@H](C)CO)C(=O)c2cccc(NC(=O)c3nc4ccccc4s3)c2O[C@H]1CN(C)CC1CCCCC1	11	nt	-0.031	34
C[C@@H]1CN([C@@H](C)CO)C(=O)Cc2cc(NC(=O)C3CCCCC3)ccc2O[C@@H]1CN(C)CC1CCCCC1	-3	0.0	0.33	nt
CCSC(=S)NC1CCS(=O)(=O)C1 (stereo not drawn)	-3	0.8	-0.057	-22
Cc1ccc(NC(=O)CSc2nnc(-c3cccs3)n2C)cc1[N+](=O)[O-]	6	1.4	nt	nt
Cc1cc(C)c(NC(=O)CN(c2ccc(I)cc2)S(C)(=O)=O)c(C)c1	7	0.3	nt	nt
Cc1ccc(S(=O)(=O)Nc2ccc3c(c2)C(=O)N([C@@H](C)CO)C[C@@H](C)[C@H](CN(C)C(=O)Nc2ccc(F)cc2)O3)cc1	-11	-0.1	-0.15	6
C[C@@H]1CN([C@@H](C)CO)C(=O)c2cccc(NC(=O)c3ccc(-c4nccs4)cc3)c2O[C@@H]1CN(C)S(=O)(=O)c1ccccc1	18	-0.2	-0.2	?
C[C@H]1CN([C@@H](C)CO)C(=O)c2cccc(NC(=O)Nc3ccc(F)cc3)c2O[C@@H]1CN(C)Cc1ccc(Cl)c(Cl)c1	32	nt	-0.12	-7
CNC[C@H]1Oc2ccc(NS(=O)(=O)c3ccc(OC)cc3)cc2C(=O)N([C@@H](C)CO)C[C@H]1C	-13	0.3	-0.013	nt
NC(=O)c1c(NC(=O)CSc2ncn[nH]2)sc2c1CCC2	7	-0.7	nt	nt
CC(Sc1nc(=O)cc(N)n1-c1ccccc1)C(=O)Nc1cccc(Cl)c1 (stereo not drawn)	-24	0.5	nt	nt
C[C@@H]1CN([C@@H](C)CO)C(=O)Cc2cc(NS(=O)(=O)c3ccc(F)cc3)ccc2O[C@@H]1CN(C)C	-7	-1.3	-0.11	8
C[C@@H]1CN([C@@H](C)CO)C(=O)c2cc(NC(=O)Cc3ccccc3)ccc2O[C@H]1CN(C)Cc1ccc(C(=O)O)cc1	-3	0.5	0.094	-8
CCOC(=O)/C(=N/O)C1=NN=C(N)SC1	-9	1.6	-0.18	3
CNC[C@H]1Oc2ccc(NS(=O)(=O)c3cccs3)cc2C(=O)N([C@@H](C)CO)C[C@@H]1C	-3	0.6	-0.32	-12
